Source: PubChem BioAssay (National Center for Advancing Translational Sciences (NCATS))
gsp agonist – agonists of gsp mutant (McCune-Albright syndrome); gsp mutant cells, cAMP HTRF, 30 min; control for the full effect not named in the record; Potency, µM (doses to about 76.9 µM), without a hit: at the highest dose activation (cAMP increase), hits mostly activators; 340,000 tested, 0.13% active; active = well fitted activation curve with a large enough effect; inconclusive = small, poorly fitted or top-dose-only effect, or another doubt; inactive = no such curve, though single readings can be large or run the other way; cell line not stated here;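 note: phosphodiesterase inhibitor Ro 20-1724 added with compounds to block cAMP breakdown; potency is the fitted concentration of half-maximal effect; nearly all actives have a fitted effect of over 60% in size; about a fifth of the inactives were tested at one dose only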
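Cells stably selected in G418 were plated at 2000/well, grown 16-24 hr, then given compounds in DMSO with the PDE inhibitor […] (300 uM solution added) for 30 min at 37C; cAMP was read by HTRF.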
gsp antagonist – antagonists of gsp mutant (McCune-Albright syndrome). gsp-mutant cells, cAMP HTRF, 30 min; control for the full effect not named in the record. Potency, µM (doses to about 76.9 µM), without a hit: at the top dose activity change, negative = inhibition, most hits filed as inhibitors. 340,000 tested, 0.4% active. AID 624288; active = falling curve of any shape with a large fitted effect; inconclusive = falling curve, mostly with a smaller effect; inactive = flat or rising curve; cell line not stated here;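 note: intracellular cAMP measured with PDE inhibitor Ro 20-1724 present during compound exposure; potency is the fitted concentration of half-maximal effect; % is set by controls: 0 for no effect and ±100 for the full control effect; nearly all actives have a fitted effect of over 65% in size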
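Measurement of cellular cAMP by homogeneous time-resolved fluorescence following a 30 min compound exposure at 37C. The PDE inhibitor […] was present throughout; the assay buffer was DPBS with 0.05% BSA and 0.005% Tween 20.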
Six1-Eya2 blk – blocks human Six1 binding to Eya2; 360,000 tested, 0.56% active; activity change, % (test concentration not listed); Q15475+O00167; AID 651725; AlphaScreen GST-Six1/His-Eya2 binding, biochemical; active compounds read low; control for the full effect not named in the record; in the data active = activity change below about -65%; inconclusive = about -30% to -65%; inactive = above about -30%; note: % is set by controls: 0 for no effect and ±100 for the full control effect
Target sequence (O00167 whole entry, looked up): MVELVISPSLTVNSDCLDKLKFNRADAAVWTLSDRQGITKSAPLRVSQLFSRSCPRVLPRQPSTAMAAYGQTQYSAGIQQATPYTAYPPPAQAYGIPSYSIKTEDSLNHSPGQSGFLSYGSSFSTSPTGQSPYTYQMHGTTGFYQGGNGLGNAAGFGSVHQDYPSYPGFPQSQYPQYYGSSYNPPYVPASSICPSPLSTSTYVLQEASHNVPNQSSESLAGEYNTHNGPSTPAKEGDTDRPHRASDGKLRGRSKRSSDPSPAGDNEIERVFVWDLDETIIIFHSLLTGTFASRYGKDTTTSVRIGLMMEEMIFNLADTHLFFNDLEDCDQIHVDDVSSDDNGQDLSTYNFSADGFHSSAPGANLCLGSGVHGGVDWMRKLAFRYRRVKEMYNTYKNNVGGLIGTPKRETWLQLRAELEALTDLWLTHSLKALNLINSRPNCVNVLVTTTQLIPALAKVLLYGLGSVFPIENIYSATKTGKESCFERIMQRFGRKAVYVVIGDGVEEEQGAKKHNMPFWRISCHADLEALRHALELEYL
Target sequence (Q15475 whole entry, looked up): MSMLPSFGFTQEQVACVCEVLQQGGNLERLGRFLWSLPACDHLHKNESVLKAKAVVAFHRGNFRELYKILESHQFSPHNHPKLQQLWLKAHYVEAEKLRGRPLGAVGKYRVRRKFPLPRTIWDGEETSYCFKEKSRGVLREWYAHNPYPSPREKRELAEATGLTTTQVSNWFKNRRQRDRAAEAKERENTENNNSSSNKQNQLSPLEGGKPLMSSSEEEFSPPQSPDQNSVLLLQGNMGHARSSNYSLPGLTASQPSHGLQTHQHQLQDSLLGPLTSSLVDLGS
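AlphaScreen luminescence read after one hour at 37 °C in darkness. Pin-transferred compounds met GST-Six1 and His-Eya2 protein (5X stock 250 nM/500 nM) plus glutathione donor and Ni-chelate acceptor beads (5X, 50 ug/mL).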
D2 potentiator – positive allosteric modulators of human D2 dopamine receptor | DiscoveRx D2 beta-arrestin cells, luminescence, 90 min; 100% = 57 uM dopamine signal | potentiation, % (no concentration beside the values) | 360,000 tested, 0.23% active; active = potentiation of 50% or more; inconclusive = 30% to 50%; inactive = 30% or less;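 note: compound concentration not given in the record; tested on top of an EC20 dose of dopamine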
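D2 cells co-treated with compound plus 50 nM dopamine (EC20) for 90 min at 37 deg C to detect potentiation. Beta-arrestin recruitment was read as enzyme-fragment luminescence after 1 h at ambient temperature. Full response was set by 57 uM dopamine.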
CtBP-E1A blk – inhibitors of CtBP/E1A interaction | AID 651724 | AlphaScreen GST-E1A/His-CtBP binding, 1536-well; active compounds read low; control for the full effect not named in the record | 340,000 tested, 0.49% active | activity change, % (test concentration not listed); in the data active means activity change below about -65%; inconclusive means about -30% to -65%; inactive means above about -30%; note: % is set by controls: 0 for no effect and ±100 for the full control effect
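Protein mix (5X: 125 nM each GST-E1A, His-CtBP) was incubated with pinned compound 2 h at 37 deg C in dark, in 50 mM Tris pH 8.0 buffer with 300 mM NaCl. Glutathione donor and nickel acceptor beads followed; AlphaScreen signal read after 1 h.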
D2 ag – agonists of human D2 dopamine receptor (beta-arrestin); P14416; DiscoveRx PathHunter D2 beta-arrestin, luminescence, 90 min; 100% = 57 uM dopamine signal; activation, % (test concentration not listed); 360,000 tested, 0.084% active; in the data active = activation above about 40%; inconclusive = about 15% to 40%; inactive = below about 15%; note: compound concentration not given in the record; the text of the record calls up to 30% inactive
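DiscoveRx PathHunter D2 beta-arrestin cells (2,100/well) attached overnight, then compound-stimulated 90 min at 37 C in HBSS/10 mM HEPES/0.1% Tween-20 buffer; beta-galactosidase complementation read by luminescence after 1 h at ambient temperature. Dopamine 57 uM final (EC100) as control.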
* hit, by the source's call; ? = inconclusive; . = not tested or not shown; [ ] = dose if it differs, or a comment. Rows were taken by chance. About 1.4% of those tested had a hit in this group.

SMILES	gsp agonist	gsp antagonist	Six1-Eya2 blk	D2 potentiator	CtBP-E1A blk	D2 ag
Cc1ccccc1NC(=O)COC(=O)c1ccc(CSc2ccc(Cl)cc2)cc1	-14%[15.4 µM]	19%	3	-5	15	1.8
CC1(C(=O)Nc2ccc3c(c2)OCCO3)CCN1C(=O)c1cccc(F)c1 (configuration not stated)	.	.	3	-4	7	2.7
CC(C)C(C(=O)NCc1ccco1)N(C(=O)CNS(=O)(=O)c1ccccc1)C1CCCC1 (configuration not stated)	5%	6%	-6	-12	1	-1.7
Cc1c(CN2CCC(n3nccc3NC(=O)C3CC3)CC2)[nH]c2ccccc12	-12%	5%	-2	-15	-7	-4.0
CCOC(=O)c1oc2ccccc2c1COC(=O)CNC(=O)c1ccccc1OC	27%[15.4 µM]	-22%	0	-14	-2	1.4
Cc1ccc2nc(SCC(=O)NCc3ccccc3)nc(=O)n2c1	-6%[15.4 µM]	12%	-9	-16	-28	9.1
O=C(NCCN1CCNC1=O)c1ccc2sc([C@H]3C[C@H](O)[C@@H](CO)O3)nc2c1	.	.	0	-10	0	-3.4
NC(=O)C1CCN(C(=O)CCc2nc3ccccc3c(=O)[nH]2)CC1	-9%	13%	0	-2	8	-3.6
O=C(N/N=C/c1ccncc1)c1ccc(NC(=O)c2ccc(Cl)cc2)cc1	4%	3%	-9	-2	4	1.8
Cc1nc(C)c(-c2ccc(SCC(=O)Nc3ccccc3)nn2)s1	5%[15.4 µM]	-12%	-7	18	-8	-4.6
Cc1cc(CNC(=O)COc2ccccc2F)c2ccccc2n1	-29%	-2%	2	-3	0	-0.7
CC(C)c1ccc(NC(=O)c2ccc(NS(C)(=O)=O)cc2)cc1	1%[15.4 µM]	-8%	10	-15	.	-2.0
COc1ccc2[nH]cc(CCNC(=O)COc3cc(C)cc4oc(=O)cc(C)c34)c2c1	.	-3%	-7	-31	?	-3.7
COc1ccc(-n2nc(C(=O)NCC(=O)NCc3ccc(F)cc3)c3ccccc3c2=O)cc1OC	?	-4%	3	1	3	12
CCOCCn1c(=NC(=O)c2ccc(S(=O)(=O)N3CCOCC3)cc2)sc2cc(S(N)(=O)=O)ccc21	?	?	2	2	2	12
COc1ccccc1CN1CCCC(CNC(=O)c2cccc3ccccc23)C1 (configuration not stated)	?	4%	-2	-56	.	-3.5
Fc1ccccc1NC(=S)NCc1ccc2c(c1)OCO2	2%	20%	2	12	0	-1.4
CCOC(=O)C(=CNc1ccc(Oc2cccnc2)nc1)C(=O)OCC	-2%	?	0	10	6	1.3
Cc1cccc(N(C(=O)c2csnn2)C(C(=O)NC2CCCCC2)c2ccncc2)c1 (configuration not stated)	3%	2%	0	-1	0	2.6
COc1ccccc1NC(=O)C1=C(C)NC2=C(C(=O)CCC2)C1c1ccc(C)o1 (configuration not stated)	?	-16%	-6	-16	9	-2.2
CCCc1[nH]nc2c1C(c1cccc(OC(=O)c3ccco3)c1)C(C#N)=C(N)O2 (configuration not stated)	20%	-15%	-2	4	5	-2.3
CCCN(C(=O)COC(=O)CCOc1ccccc1)c1c(N)n(Cc2ccccc2)c(=O)[nH]c1=O	-8%	-8%	3	-6	-2	-0.2
COC(=O)c1ccccc1NC(=S)NC(=O)c1ccccc1C	-8%	-2%	-2	-10	-6	1.8
COc1ccc(-c2nc(CCNC(=O)c3ccc(Br)o3)cs2)cc1	18%	45µM*	-3	-5	-30	4.5
COC(=O)c1ccc(CSc2nnc(Nc3ccc(C)cc3)s2)o1	0%	-15%	-6	-18	-5	-4.3
CC1(C)NC(=O)N(CC(O)CN(c2ccccc2)S(=O)(=O)c2ccccc2[N+](=O)[O-])C1=O (configuration not stated)	5%[15.4 µM]	0%	-20	-7	-1	-1.5
Cc1ccc(S(=O)(=O)c2c(C)nn(C(C)(C)C)c2OC(=O)C(C)C)cc1	28%	-6%	9	-8	4	-0.5
CCC1=Nc2cc(C(=O)N3CCCCC3)ccc2Sc2ccc(C)cc21	12%	-12%	-11	-5	-12	0.8
CCCCCCn1cnc2c(c1=O)c1nc3ccccc3nc1n2/N=C/c1ccco1	-11%	-1%	-2	18	-1	-1.9
O=C(Cc1ccccc1[N+](=O)[O-])Nc1nccs1	4%[15.4 µM]	11%	-8	-2	-6	-1.3
Cc1ccc(S(=O)(=O)N2CCN(c3ncnc4ccccc34)CC2)cc1	0%	-23%	7	-4	.	-2.3
Cc1occc1-c1nnc(SCC(=O)Nc2nc(-c3ccccc3)cs2)o1	-6%	-1%	1	-6	2	-0.6
CCC(Sc1nc2c(c(=O)[nH]1)CCC2)C(=O)Nc1cccc(OC)c1 (configuration not stated)	7%	?	0	-6	3	0.0
COc1ccc(S(=O)(=O)Nc2ccc3c(c2)[C@H]2C[C@H](CC(=O)NCC4CC4)O[C@@H](CO)[C@H]2O3)cc1	-30%[inhibitor]	.	6	-16	-3	-8.1
O=C(Cc1ccc(Cl)cc1)Nc1ccc(C(=O)N2CCCCC2)cc1	-43%[inhibitor]	-15%	4	0	6	0.1
CCNC(=O)COc1ccc(C=O)cc1OC	-2%[15.4 µM]	9%	0	14	-1	0.4
Cc1nc(-c2ccccc2)nc2n[nH]c(N)c12	-7%[15.4 µM]	?	-9	-7	-5	2.0
COc1ccc(-n2nc(C(=O)NCC(=O)N3CCN(c4ccccc4F)CC3)c3ccccc3c2=O)cc1	?	-13%	-5	-3	-2	-3.7
CCCCn1c(SCC(=O)NCc2ccco2)nc2c(sc3ccccc32)c1=O	0%	-14%	-1	-12	-1	-4.6
Cc1ccccc1C(=O)Nc1ccnn1C1CCN(Cc2cnn(C)c2)CC1	-26%	7%	-3	-13	17	-6.4

Four entries from above, reformatted:
mol: Cc1ccc(S(=O)(=O)c2c(C)nn(C(C)(C)C)c2OC(=O)C(C)C)cc1
  gsp agonist: 28%
  gsp antagonist: -6%
  Six1-Eya2 blk: 9
  D2 potentiator: -8
  CtBP-E1A blk: 4
  D2 ag: -0.5

mol: CCC1=Nc2cc(C(=O)N3CCCCC3)ccc2Sc2ccc(C)cc21
  gsp agonist: 12%
  gsp antagonist: -12%
  Six1-Eya2 blk: -11
  D2 potentiator: -5
  CtBP-E1A blk: -12
  D2 ag: 0.8

mol: CCCCCCn1cnc2c(c1=O)c1nc3ccccc3nc1n2/N=C/c1ccco1
  gsp agonist: -11%
  gsp antagonist: -1%
  Six1-Eya2 blk: -2
  D2 potentiator: 18
  CtBP-E1A blk: -1
  D2 ag: -1.9

mol: O=C(Cc1ccccc1[N+](=O)[O-])Nc1nccs1
  gsp agonist: 4%[15.4 µM]
  gsp antagonist: 11%
  Six1-Eya2 blk: -8
  D2 potentiator: -2
  CtBP-E1A blk: -6
  D2 ag: -1.3

Following part.
SMILES	gsp agonist	gsp antagonist	Six1-Eya2 blk	D2 potentiator	CtBP-E1A blk	D2 ag
CCC(C(=O)OCC(=O)NC(=O)c1ccccc1)c1ccccc1 (configuration not stated)	-17%	4%	0	-18	18	0.1
O=C(CNC(=O)c1ccc(Br)cc1)NCc1cccnc1	5%	7%	-6	-4	3	2.2
COc1ccc(NC(=O)O/N=C/c2ccc(Br)cc2)cc1	-2%	4%	0	-5	-6	-0.7
COc1ccc(-n2c(SCC(=O)Nc3ccc4c(c3)OCO4)nc3ccccc3c2=O)cc1	13%	4%	-5	-10	-4	-1.2
Cc1cc(C)n2c(SCC(=O)NC3CCCCC3C)nnc2n1 (configuration not stated)	15%[15.4 µM]	8%	-8	7	-11	1.7
O=C1CN(C(=O)N[C@@H](Cc2ccccc2)C(=O)N[C@@H](C(=O)O)c2ccccc2)c2ccccc2N1	38%	5%	2	-5	1	-0.5
Cn1cnc2cc(NCc3ccc(Cl)cc3)ccc21	-96%[inhibitor]	1%	-2	-14	.	-1.7
Cc1cc(-c2nn(-c3ccccc3F)cc2CN2CCCC(O)C2)c(C)s1 (configuration not stated)	27%	-1%	-12	-18	-19	-4.4
COC(=O)c1[nH]c2cc(OC)c(OC)cc2c1NC(=O)Oc1ccccc1	?	?	-21	?	-23	2.1
C=CCNc1nc(N)c([N+](=O)[O-])c(NCCO)n1	11%[15.4 µM]	15%	16	-5	8	-3.8
O=C(NCc1ccc(Cl)c(Cl)c1)c1cc(C2CCCCN2C(=O)c2ccccc2)on1 (configuration not stated)	.	.	-8	-1	-4	-5.2
COc1cc2nc(-c3ccccc3C)oc(=O)c2cc1OC	-14%[15.4 µM]	-19%	11	-4	0	11
Cc1cc(Cl)ccc1N(CC(=O)NCc1ccc2c(c1)OCO2)S(C)(=O)=O	1%[15.4 µM]	3%	6	-15	4	-5.8
O=C(COC(=O)c1ccc(Br)o1)NCCCc1ccccc1	0%	-23%	0	-8	0	-1.7
Cc1ccccc1C(=O)c1cccn1CC(=O)NCc1ccc(Cl)cc1	-4%	-6%	0	-9	.	3.6
Clc1ccc(N2N=C(c3cccs3)CC2c2ccco2)cc1 (configuration not stated)	9%	-6%	171	12	196	-2.0
Cc1ccc(NC2=NC(c3ccccc3)n3c(nc(C)cc3=O)N2)cc1 (configuration not stated)	-2%	3%	3	-10	6	-1.9
O=C(NNC(=O)c1ccccc1[N+](=O)[O-])c1csc(N2CCOCC2)n1	5%	6%	0	1	6	-0.8
CCCc1cc(C(=O)OC)c2ccccc2n1	?	31%[activator]	9	-17	-3	-5.6
COc1ccc(-c2[nH]ncc2CNCCCSC)cc1F	1%	7%	24	-8	.	1.6
CCN(CC)C1=NS(=O)(=O)c2cc([N+](=O)[O-])ccc21	0%	-8%	-3	13	3	?
Cc1ccc(NS(=O)(=O)c2ccc(CCC(=O)O)cc2)cc1	24%	1%	2	-11	2	-2.1
CCOC(=O)c1cc2c(=O)n3ccccc3nc2n(Cc2ccco2)c1=NC(=O)c1ccc(OC)cc1	-4%[15.4 µM]	-31%	1	4	-5	-5.3
CC1(C(=O)NS(=O)(=O)c2ccccc2)CCN1C(=O)CC1CCCC1 (configuration not stated)	.	.	9	-5	-9	-6.1
CN1C(=O)[C@H]2[C@@H](C3CC3)N3C(=O)CN(CCO)C(=O)[C@@]3(Cc3ccccc3)[C@H]2C1=O	-6%	4%	7	-12	6	-2.7
C=C1CCN([C@H](C(=O)OCc2cccc(C)c2)C(C)C)S(=O)(=O)c2ccccc21	.	-1%	11	-5	-25	-3.6
COc1ccc(OCCC(=O)OCC(=O)NCc2ccco2)cc1	25%	-24%	-19	-5	3	-2.2
COCCNc1nc2c(S(=O)(=O)c3cc(C)ccc3C)nnn2c2ccccc12	10%	?	9	0	10	-4.3
CN1CCN(CC(=O)Nc2nc(-c3ccccc3)cs2)CC1	19%[15.4 µM]	0%	5	-6	2	-1.8
